MT1-MMP act inh – MT1-MMP (human) activation inhibition; HT1080 RFP-PRO-GFP cells, GFP/RFP ratio fluorescence, overnight; percent of plate control window, DMSO zero; P50281; GFP/RFP ratio change, % at 20 µM; 360,000 tested, 0.061% active; AID 651647;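 active = GFP/RFP ratio change of at least 30% with cell ATP level not reduced by more than half and red fluorescence within 50% of control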; also: strong numbers were not always called active
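Assay system: RFP-PRO-GFP reporter HT1080 cells; read-out basis: GFP/RFP fluorescence ratio; benchmarks: DMSO wells and RFP-L50D-GFP cells; doses: 20 µM single dose, 1% DMSO; schedule: overnight cell settling, then overnight compound exposure, 37 °C, 5% CO2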
Rce1 inhib – inhibitors of yeast Ras-converting enzyme; yeast membranes, quenched prenylated peptide cleavage fluorescence; calls only; Q03530; AID 2563; 290,000 tested, 0.27% active;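 active = fall in fluorescence gain of 50% or more versus controls, with final raw signal at or below 3038400; inconclusive = same 50% fall but final raw signal above 3038400; inactive = fall in fluorescence gain under 50%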;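 also: plate controls were neutral control wells for no effect and wells lacking membranes for full effect; tested at 10 µM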
CSC inhib – cancer stem cell inhibition; 300,000 tested, 1.1% active; cancer stem cell-like cells viability, luminescence; inhibition, % at 7.5 µM;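 active = mean at 75% or more and at least half the replicates too; inconclusive = mean and replicates disagree; tested in HMLE shEcad cells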;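 also: 0% = median of negative and 100% = median of positive control wells; the first replicate is given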
eIF4H FP inh – inhibitors of RNA binding by human eIF4H | Q15056 | eIF4H fluorescence polarization binding assay | inhibition, % at 35 µM | 290,000 tested, 0.94% active | AID 2012;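 active = 50% or more with normal probe brightness, or confirmed in later tests; inconclusive = above 50% with abnormal brightness, or retests that disagree; inactive = below 50% or failed in later tests; about a fifth of its hits are not listed in these tables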;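 also: calls also rest on retests at 20 µM and on dose response follow-up; 0% = protein and probe with vehicle and 100% = probe without protein; strong numbers were not always called active; many hits fall short of the cut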
PABP polyA inh – PABP-poly(A) binding inhibition. AID 2014. P11940. 290,000 tested, 1% active. PABP-poly(A) RNA binding, fluorescence polarization. inhibition, % at 35 µM;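 active = 50% or more with normal probe brightness, or confirmed in later tests; inconclusive = above 50% with abnormal brightness, or retests that disagree; inactive = below 50% or failed in later tests; about a fifth of its hits are not listed in these tables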;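 also: calls also rest on retests at 20 µM and on dose response follow-up; controls were probe without protein and protein plus probe with vehicle; some compounds called inactive have numbers as strong as hits; many hits fall short of the cut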
Target sequence (P11940 whole entry, looked up): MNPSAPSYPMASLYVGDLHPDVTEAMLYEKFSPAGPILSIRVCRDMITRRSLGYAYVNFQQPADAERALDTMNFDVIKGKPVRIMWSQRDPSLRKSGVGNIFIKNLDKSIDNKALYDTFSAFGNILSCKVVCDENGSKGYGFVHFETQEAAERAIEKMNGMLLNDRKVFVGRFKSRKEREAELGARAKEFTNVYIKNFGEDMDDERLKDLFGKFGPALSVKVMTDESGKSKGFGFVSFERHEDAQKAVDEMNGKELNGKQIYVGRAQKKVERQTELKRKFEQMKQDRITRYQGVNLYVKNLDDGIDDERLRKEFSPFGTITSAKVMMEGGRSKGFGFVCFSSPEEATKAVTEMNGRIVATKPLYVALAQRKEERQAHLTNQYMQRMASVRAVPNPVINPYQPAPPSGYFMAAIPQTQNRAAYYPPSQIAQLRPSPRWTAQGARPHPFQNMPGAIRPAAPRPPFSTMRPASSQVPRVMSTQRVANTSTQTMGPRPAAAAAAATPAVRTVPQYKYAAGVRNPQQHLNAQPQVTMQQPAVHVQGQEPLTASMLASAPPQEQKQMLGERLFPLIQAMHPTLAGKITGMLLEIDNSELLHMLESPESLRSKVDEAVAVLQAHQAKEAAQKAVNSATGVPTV
Env fusion inh – blocks HIV Env-driven cell-cell fusion; HeLa-JRFL Env/CEM21 cell fusion, luciferase; inhibition, % at 12.3 µM; 360,000 tested, 1.1% active;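 active = mean replicate inhibition score of at least 50 and every replicate individually at or above 50; inconclusive = only one of the two criteria met; inactive = mean below 50 and not all replicates reaching 50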;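 also: 0% = plate neutral controls and 100% = maraviroc near 300 nM; one replicate is shown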
Yeast UUG start – modulators of start codon recognition fidelity in yeast; activity score, % at 18.7 µM; S. cerevisiae UUG-firefly luciferase reporter, luminescence/redox ratio; 350,000 tested, 0.13% active;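 active = replicate mean at a twofold rise or more, about +100% in these data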;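 also: firefly luciferase made from a UUG start codon reports start codon fidelity; reporter light over untreated wells divided by growth signal over untreated wells; some hits fall short of that in this replicate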
eIF4H FP inh retest – also measured in eIF4H FP inh; calls as there; inhibition, %; compound at 20 µM; confirmation average;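 mean of two retest wells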
PABP polyA inh retest – also measured in PABP polyA inh; calls as there; inhibition, %; compound at 20 µM; confirmation repeats;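 mean of two retest wells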
MT1-MMP act inh RFP – recorded beside MT1-MMP act inh, whose call it bears; RFP signal change, %; measured here: RFP expression control read;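 0 = vehicle wells; hits needed this value within 50% of zero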
Numbers without * were called inactive; i = inactive; ? = inconclusive; / = not tested or not shown; & = joins results of further samples.

SMILES	MT1-MMP act inh	MT1-MMP act inh RFP	Rce1 inhib	CSC inhib	eIF4H FP inh	PABP polyA inh	Env fusion inh	Yeast UUG start	others
O=C1NC(=S)NC(=O)C12C(c1ccccc1)NC(=S)NC2c1ccccc1 (centres undefined)	2	2	i	-12	4	6	7	-30
CCc1ccccc1NC(=O)CN1CCN(C(=O)COc2ccccc2C#N)CC1	3	-3	/	4	/	/	-2	-1
CN1C[C@H](CO)C[C@@H]2c3cccc4[nH]cc(c34)C[C@H]21	-2	2	i	1	6	5	-11	-21
O=C1C2(c3ccccc3)CN3CN(C2)CC1(c1ccccc1)C3	2	4	i	-7	1	2	-75	21
CC1(C)CSC(Nc2ccc(F)c(Cl)c2)=N1	-1	-8	i	6	-3	-9	/	-3
O=C(NC1(C(F)(F)F)Oc2ccc(Cl)cc2O1)N1CCC2(CC1)OCCO2 (centres undefined)	5	-8	i	51	18	17	-59	-18
O=C(c1ccccc1F)c1cn(Cc2ccccc2)c2ccccc12	0	3	i	33	8	-4	-48	/
COC(=O)C1=C(c2ccc(-c3ccccc3)c(F)c2)C[C@@H]2CC[C@H]1N2C(=O)NCCc1ccccc1	-8	-16	/	47	/	/	-10	-16
CNCC(C)c1ccccc1 (centres undefined)	2	1	i	-23	-11	-7	-3	/
CC(=O)N(C1=NCCCS1)c1ccccc1Cl	3	2	/	-12	-1	10	-8	-9
COC(=O)C1=C(c2ccccc2)C[C@@H]2CC[C@H]1N2C(=O)NCCO	5	2	i	-3	/	/	-19	-3
O=C(Nc1ccc(Cl)cc1)N1CC2CC(C1)c1cccc(=O)n1C2 (centres undefined)	4	4	i	-8	0	1	-25	-16
Cc1cccc(C)c1-n1nnnc1C(CCc1ccccc1)N1CCC(n2c(=O)[nH]c3ccccc32)CC1 (centres undefined)	13	-34	/	/	/	/	27	-5
CSc1ncc(/C=C2/C(=O)NC(=O)N(C3CCCCC3)C2=O)cn1	-4	2	i	7	8	-5	/	0
CC(=O)OC1(c2ccccc2)CCN(C)CC1(C)C (centres undefined)	-2	5	i	-12	4	7	2	-8
Cc1cc(C)c2c(ccc3cccc[n+]32)c1	-1	-23	i	-11	/	/	37	0
c1ccc2cc(C3N4CCCN34)ccc2c1 (centres undefined)	1	3	i	/	-6	1	-1	/
Oc1ccc(/C=N/NP(=S)(c2ccccc2)c2ccccc2)c(O)c1O	-4	3	i	-16	/	/	-15	-36
CCCCCn1c(=O)c(C(=O)NCc2ccccc2)c(O)c2ccccc21	-3	-20	i	30	-12	10	16	-13
Cc1ccc(N2C(=O)NC(=O)/C(=C\c3cc(C)n(-c4ccc(C(=O)O)cc4)c3C)C2=O)cc1	-7	3	i	-7	42	11	0	10
O=C(NN=Cc1ccc(N(CCCl)CCCl)cc1)c1cc(=O)[nH]c(=O)[nH]1	10	4	/	/	/	/	?	-1
COC(=O)C(O)(c1ccc(NC(=O)c2ccccc2)cc1)C(F)(F)F (centres undefined)	-1	1	i	-6	-11	-7	-20	5
O=C(Cn1cnc2sc3c(c2c1=O)CCCC3)NCCC(=O)N1CCC2(CC1)OCCO2	0	8	i	-20	-8	-12	24	3
O=C1CCN(C(=O)CNC(=O)Cc2ccccc2)CC1	2	6	i	2	4	-4	6	/
CCN(CC)c1ccc(CN(C)CCc2ccc(OC)c(OC)c2)cc1	5	1	i	4	-8	-8	10	-18
CCOP(=O)(/C=C(\Cl)c1ccccc1)C(O)c1ccc(F)cc1 (centres undefined)	-3	-4	i	-6	0	-4	5	13
COc1ccc(-c2cc(=NCC(=O)O)c3ccccc3o2)cc1	2	-2	i	-2	-2	7	/	/
CCCCCCC(Cl)(Cn1ccnc1)c1ccccc1 (centres undefined)	3	0	i	4	/	/	3	/
NC1=Nc2ccccc2Oc2ccccc21	7	3	i	/	-3	-8	-65	/
CNC(=O)Nc1ccc(C(=O)N/N=C\C23CC[C@@H](O)CC2(O)CC[C@@H]2[C@@H]3CCC3(C)C(C4=CC(=O)OC4)CCC23O)cc1 (some centres undefined)	-4	4	i	-2	-7	8	-21	-11
CC(C)N1CCN(Cc2cc3c(cc2Cl)OCO3)CC1CCO (centres undefined)	0	0	i	-8	1	3	35	-9
CCCCCn1c(=O)c(C(=O)NCc2ccco2)c(O)c2ccccc21	1	-1	i	10	-9	-4	11	/
CCOP(=S)(OCC)SCC(=O)NC(C)(CC)C(=O)O (centres undefined)	-1	2	i	-2	-17	-12	-125	-9
COc1ccc(CN2CC=C(c3ccc(F)cc3)CC2)cc1Br	0	0	i	58	-7	-2	18	-4
O=C1NC(=O)N(Cc2cccs2)C(=O)/C1=C/c1ccc(N2CCOCC2)cc1	-1	7	i	-8	46	36	7	/
O=C1OCCC1NC1=NCCC1 (centres undefined)	3	10	i	12	-9	-3	0	-19
CSc1ccc(C(=O)C2CCCN(Cc3cccnc3)C2)cc1 (centres undefined)	-4	-11	i	-2	-4	-5	14	/
CN1C2CCC1CC(=NO)C2	0	6	i	-2	1	18	/	-31
CCCCC(=O)N/N=C/c1c(O)n(C2CC2)c(=S)[nH]c1=O	5	3	i	3	2	-9	-13	/
CCOP(=O)(C#CC(C)(C)C)C1(O)CCCCC1 (centres undefined)	-1	3	i	-3	6	-5	/	-9
CN(CC1COc2ccccc2O1)c1nc(-c2cccnc2)nc2ccccc12 (centres undefined)	-4	-4	/	29	/	/	65*	-10
CCCC(=O)Nc1cc(C(=O)N2CCC3(CC2)OCCO3)ccc1S(=O)(=O)c1ccc(C)cc1	1	0	i	/	5	3	13	4
Clc1cccc(N2Cc3cc(N4CCOCC4)ccc3-n3nncc3C2)c1	2	-10	/	/	/	/	1	-8
CCCCn1c(O)c(C(C)=NCCCN(C)C)c(=O)[nH]c1=O	-4	-1	i	-7	3	6	-33	-17
O=C(Cn1c(NCCCl)nc2ccccc21)c1ccc(Br)cc1	-9	-4	i	/	/	/	19	-7
Brc1ccc(C2N3CCCN23)cc1 (centres undefined)	1	6	i	3	0	-11	/	/
O=c1c2ccccc2nc(-c2ccco2)n1-c1ccccc1	-1	1	i	15	-1	12	/	-10
Cc1cc(C)c2c(c1)-c1cc(C)nn1C(c1cccnc1)N2 (centres undefined)	7	4	i	-12	-9	-14	-23	-4
C=COCCn1c(C)c(C(=O)OCC)c2cc(O)ccc21	3	4	i	-6	7	-1	14	-8
CCOC(=O)c1c(-n2c(C)cc(/C=C3/C(=O)NC(=O)N(CC)C3=O)c2C)sc2c1CCCC2	-2	-1	i	3	/	/	-3	-5
CCOP(=O)(OCC)C(NC(=O)C(Cl)Cl)C(Cl)(Cl)Cl (centres undefined)	4	4	i	/	-15	4	-13	/
N=C1c2ccccc2CN1CC(=O)c1ccccc1	1	0	i	0	0	-14	-87	/
CC1(O)CCC2C3CCC4=CC(=O)CCC4=C3C=CC21C (centres undefined)	2	2	/	/	/	/	-82	-2
COc1cc(C(C)=O)ccc1OC(=O)N(C)c1ccccc1	3	0	i	2	3	6	-1	0
O=S(=O)(F)c1ccc2nc(-c3cccc(Sc4ccccc4)c3)cc(Cl)c2c1	2	2	i	20	5	5	-8	/
C[N+]1(C)CCc2cc3c(cc2[C@H]1[C@@H]1OC(=O)c2c1ccc1c2OCO1)OCO3	-3&-1	1&2	i	-12&-14	-1&-5	6&9	19&20	1&-25&-9
CCC(CC)N1CCN(Cc2nc3ccccc3c(=O)n2-c2ccc(F)cc2)CC1	2	4	i	2	-4	2	2	-11
CCN1/C(=C/C=C/C2=[N+](CC)c3ccccc3C2(C)C)C(C)(C)c2ccccc21	15	62	/	/	/	/	36	-35
COC(=O)C1=C(c2ccc3ccccc3c2)C[C@@H]2CC[C@H]1N2C(=O)NC1Cc2ccccc2C1	2	-6	/	38	/	/	10	-15
C#C[C@@]1(O)CCC2C3CCC4=C/C(=N/OCC(=O)NC(C(=O)O)C(C)O)CC[C@]4(C)C3CC[C@@]21C (some centres undefined)	4	7	i	-6	-11	-7	0	13

Continuation:
SMILES	MT1-MMP act inh	MT1-MMP act inh RFP	Rce1 inhib	CSC inhib	eIF4H FP inh	PABP polyA inh	Env fusion inh	Yeast UUG start	others
CCOP(=O)(Cc1cc(C#N)oc1C)OCC	8	9	i	-5	10	-2	0	/
O=c1[nH]c(=O)n(CC2CCCO2)c(O)c1/C=C1\C=Nc2ccccc21 (centres undefined)	-2&-2	4&2	i	-9&11	?	?	-11&8	12
CCOC(=O)c1ccc(N=C(CC)c2c(O)n(C)c(=O)n(C)c2=O)cc1	1	0	i	-4	27	4	-6	/
CCOc1ccc2nc(N=Nc3c(O)[nH]c(=S)[nH]c3=O)sc2c1	59*	2.6*	i	-2	8	5	-14	/
Cc1cc(/C=C2/C(=O)NC(=O)N(c3ccccc3)C2=O)c(C)n1-c1ccc(F)cc1	-8	7	i	/	/	/	/	-12
C[C@]12CCC3C(C[C@@H](O)[C@H]4C[C@@H](O)CC[C@]34C)C1CC[C@@H]2O (some centres undefined)	0	5	/	-11	/	/	6	-16
FC(F)=C(F)CCSc1ncn[nH]1	1	5	i	-5	24	36	19	/
Cc1c(C(=O)c2ccccc2)c2ccccc2n1C	1	2	i	-8	-1	6	5	/
Cc1cc(Cl)nc(N)n1	0	8	i	4	1	3	-20	2
C[C@]12CCC3C(CC[C@H]4C[C@@H](O)CC[C@]34C)C1CC[C@@]2(O)C(F)(F)F (some centres undefined)	10	0	/	-3	/	/	1	5
Cc1nc2cc(C(=O)N3CCC4(CC3)OCCO4)ccc2n1-c1ccc(Br)cc1	0	2	i	-15	2	4	/	-8
CCc1nn(CC(=O)N2CCC3(CC2)OCCO3)c(=O)c2cc3ccccc3n12	1	1	i	0	-1	1	1	-11

The last four compounds of the part above open the next one:
SMILES	MT1-MMP act inh	MT1-MMP act inh RFP	Rce1 inhib	CSC inhib	eIF4H FP inh	PABP polyA inh	Env fusion inh	Yeast UUG start	others
Cc1cc(Cl)nc(N)n1	0	8	i	4	1	3	-20	2
C[C@]12CCC3C(CC[C@H]4C[C@@H](O)CC[C@]34C)C1CC[C@@]2(O)C(F)(F)F (some centres undefined)	10	0	/	-3	/	/	1	5
Cc1nc2cc(C(=O)N3CCC4(CC3)OCCO4)ccc2n1-c1ccc(Br)cc1	0	2	i	-15	2	4	/	-8
CCc1nn(CC(=O)N2CCC3(CC2)OCCO3)c(=O)c2cc3ccccc3n12	1	1	i	0	-1	1	1	-11
CC12CN3C(O)C(C)(C1)CC(C)(C2)C3O (centres undefined)	5	5	i	-9	-5	-3	/	-39
O=[N+]([O-])c1ccc(N2CCCCCC2)c2ncccc12	6	2	i	15	1	-3	-3	/
O=C(C1CC(c2ccc(F)cc2)=NO1)N1CCC2(CC1)OCCO2 (centres undefined)	0	3	i	7	2	-6	-54	/
Cc1ccc(Cn2ccccc2=N)cc1	-2	4	i	-13	-14	77	-2	3	eIF4H FP inh retest=-9;PABP polyA inh retest=14
CN(C)C1(CNC(=O)c2ccc(Cl)c(S(=O)(=O)NCc3ccco3)c2)CCCCC1	7	0	i	-3	0	-11	-56	9
CCN(CC)c1ccc(/C=C2\C(=O)NC(=O)N(CC3CCCO3)C2=O)cc1 (centres undefined)	-3	5	i	4	?	-8	3	-3
COc1ccccc1N1CCN(Cc2c(F)cccc2Cl)CC1	2	-5	i	-6	0	26	-42	-8

These rows are one share of the data. The share of hits here may be higher or lower than overall.
